Screening data deposited in PubChem BioAssay by National Center for Advancing Translational Sciences (NCATS).
nsP2pro primary: CHIKV nsP2 protease inhibition, primary qHTS; hit rate 1.1% among 31,000; AID 1964107; Q8JUX6; FRET peptide cleavage, nsP2pro, fluorescence 1 h; Potency, µM (series often up to 24.9 µM), without a hit: at the top dose activity change, negative = inhibition, hits mostly inhibitors; active means well fitted inhibition curve with a large enough effect; inconclusive means small, poorly fitted or top-dose-only effect; inactive means no such curve, though single readings can be large or run the other way; also: nearly all actives have a fitted effect of over 60% in size; a reference inhibitor and vehicle were the controls
* = called active by the depositor; i = inactive; ? = inconclusive; & = joins results of further samples; [ ] = remark or other dose. % is scaled to controls: 0 for no effect and ±100 for the full control effect; potency is read from the fitted curve at half-maximal effect. Only part of the results is shown; count on the stated rates, not on these rows.

SMILES | nsP2pro primary
O=C1CCCC2=C1C(c1[nH]ncc1Cl)NC(=NCc1ccoc1)N2 (configuration not stated) | -8%
O=C(NCCc1ccccc1)c1cnc2sc(N3CCOCC3)nn2c1=O | -1%
C/C=C/C=C/C=C/C(=O)OC1C=C2C(O)OC(=O)[C@]2(O)[C@@]2(C)CCCC(C)(C)[C@H]12 (some centres not stated) | 17%[10 µM]
COC(=O)c1cc2sccc2n1Cc1ccc(F)cc1 | 17%
O=C(Cc1cccc(Cl)c1)NC1CCN(Cc2ccc(-c3ccsc3)cc2)C1 (configuration not stated) | 2%
CC[C@H](CC#N)OC(=O)N[C@@H](C)c1cccc(NC(=O)Nc2ccc(-c3cnco3)c(OC)c2)c1 | -11%
C=CC(C)(O)CC/C=C(\C)C1CC=C(C)C(=O)O1 (configuration not stated) | 7%
COc1ccc(C(=O)Nc2nc(-c3ccccc3)cs2)cc1NS(=O)(=O)c1ccc(C)cc1 | 1%
Cc1cccc(NC(=O)c2oc3ccccc3c2NC(=O)Cc2coc3c(C)c(C)ccc23)c1 | -18%
c1ccc2c(c1)CCN2c1nccnc1OC1CCNC1 (configuration not stated) | -8%
CC1(C=O)CC[C@]2(C(=O)O[C@@H]3O[C@H](CO)[C@@H](O)[C@H](O)[C@H]3O)CC[C@]3(C)C(=CCC4[C@@]5(C)C[C@H](O)[C@H](O[C@@H]6OC[C@@H](O)[C@H](O)[C@H]6O)[C@@](C)(CO)C5CC[C@]43C)C2C1 (some centres not stated) | ?
O=C(Nc1ccccc1-c1nc2ccccc2s1)c1ccc(F)cc1 | -11%
FC(F)(F)c1cccc(C2=NOC3(CCN(Cc4ccccc4)CC3)C2)c1 | 3%
O=C(Cn1c(=O)oc2cc(S(=O)(=O)NCc3ccccc3)ccc21)NCc1ccc(F)cc1 | -17%
CNC(=O)c1cc(C)nc2onc(C3CCN(C(=O)C4CCCC4)CC3)c12 | 1%
COc1ccc(OC2CCN(C3CCCC3)CC2)c(C(=O)NCCCN2CCCC2=O)c1 | 1%
Cc1cccc(NC(=O)CN(C)S(=O)(=O)c2cnc[nH]2)c1C | -13%
Cc1nn(C)c(C)c1CCN(C)C(=O)C1CCN(C(=O)N2CC3CC(C2)[C@H]2CCCC(=O)N2C3)CC1 (some centres not stated) | i
COc1cc(-c2ccc3ncnc(NCCc4cnc[nH]4)c3c2)cc(OC)c1OC | i
CCCCn1c(CNC(=O)C23CC4CC(CC(C4)C2)C3)nnc1SCC(=O)Nc1ccc(F)cc1 | -7%
Cc1cnc(-c2ccccc2CO)nc1NCc1ccc(-c2cccnc2)cc1 | i
Cn1cnnc1CC1CCN(C(=O)CN2CC(c3ccccc3)CC2=O)CC1 (configuration not stated) | i
C/C=C\NC(=O)C1NC(=O)C(CC(N)=O)NC(=O)C(NC(=O)C(=O)C(C)CC)Cc2ccc(O)c(c2)-c2cccc3c2NC(=O)C3(O)C1O (configuration not stated) | -16%[10 µM]
CCOc1ccc(C(=O)NCCS(=O)(=O)N2CCN(c3cccc(Cl)c3)CC2)cc1 | -19%
Oc1ccc(CNc2cccc(C(F)(F)F)c2)c2cccnc12 | -19%
SMILES | nsP2pro primary
COc1cccc(CN2CCCCC2c2nc(CCOCC3CCOCC3)no2)c1 (configuration not stated) | i
C=C1C(=O)O[C@@H]2C/C(C)=C\C(=O)/C=C(\C)[C@@H](OC(=O)/C(C)=C\C)[C@H](O)[C@@H]12 | -7%
CCc1ccccc1NC(=O)CCCN1C(=O)COc2ccc(C)cc21 | -14%
COC(=O)C1=COC(O[C@@H]2O[C@H](COC(=O)/C=C/c3ccc(O)cc3)[C@@H](O)[C@H](O)[C@H]2O)C2C(CO)=CCC12 (some centres not stated) | -3%[10 µM]
O=C1Cc2ccccc2N1 | 4%
CC(N)C12CC3CC(CC(C3)C1)C2 (configuration not stated) | 2%&33%
NS(=O)(=O)c1cc2c(cc1Cl)NC(Cc1ccccc1)NS2(=O)=O (configuration not stated) | -3%
COc1ccc(C2NC(=O)c3ccccc3N2)cc1COc1c(C)cc(NC(C)=O)cc1C (configuration not stated) | -1%
CCCN1CCN(c2nnc(-n3cccc3C(=O)Nc3cc(Cl)ccc3C)s2)CC1 | -26%
COc1ccc(-c2nc3ccccc3c(=O)n2Cc2ccccc2)cc1CNc1ccc(NC(C)=O)cc1 | -7%
COP(=S)(OC)Oc1ccc(S(=O)(=O)N(C)C)cc1 | -7%
Cc1cccc(CNc2ncnc3ccc(-c4ccc5c(c4)OCCO5)cc23)c1 | i
Cc1ccc(N2C(=O)CS(=O)(=O)C23C(=O)N(Cc2ccccc2F)c2ccccc23)cc1Cl (configuration not stated) | -20%
COc1ccccc1NC(=O)Nc1ccc2n(c1=O)C[C@H]1C[C@@H]2CN(C(=O)Cc2cccs2)C1 | -6%
O=C(O)c1ccc(-n2cccc2/C=C2\SC(=O)N(Cc3ccc(Cl)cc3)C2=O)cc1 | i
Cc1ccc2c(c1)N(C(=O)CCC(=O)NCc1cccs1)CCO2 | -16%
CC(C)C[C@H]1C(=O)N2CCC[C@H]2[C@]2(O)O[C@](NC(=O)[C@@H]3C=C4c5cccc6[nH]c(Br)c(c56)CC4N(C)C3)(C(C)C)C(=O)N12 (some centres not stated) | 9%
CCC(=O)N1c2ccc(S(=O)(=O)CCC(=O)N3CCN(c4cc(C)ccc4C)CC3)cc2CC1C (configuration not stated) | -24%
O=C(NCc1ccco1)C1COC2(CCN(C(=O)c3ccc(F)cc3)CC2)N1C(=O)c1ccco1 (configuration not stated) | ?
NCCCC(=O)N1CCCC2(Cc3ccccc3CN2C(=O)c2cccc(Cl)c2)C1 (configuration not stated) | 0%
Cc1cccc(OCc2nc(CC(=O)Nc3ccc(Cl)cc3)cs2)c1 | -5%
O=S(=O)(Nc1nccs1)c1ccc(NCc2cccc(O)c2)cc1 | ?
COCCN1CCCC2(CCN(C(=O)CCn3cncn3)C2)C1=O (configuration not stated) | -2%
CCCCNC(=O)CN1CCN(c2ncc(NC(=O)c3ccc(Cl)cc3)cc2C(=O)O)CC1 | ?
Cc1ccc(-c2onc(C)c2C)cc1S(=O)(=O)N1CCOc2ccc(Cl)cc21 | -17%
SMILES | nsP2pro primary
CCCCNc1nc(C)nc2c1nc(-c1ccccc1)n2C1CCN(Cc2ccccc2)C1 (configuration not stated) | 1%
COc1cc(NC(=O)c2cccc(-n3cc(NC(=O)Nc4cccc(C)c4)cn3)c2)cc(OC)c1OC | ?
CN(C)S(=O)(=O)N1CCC(Oc2ccc(C(=O)NCCc3ccncc3)cc2)CC1 | i
COc1ccc(Nc2sc(C(=O)c3ccccc3)c(N)c2C(=O)Nc2cc(C)ccc2C)c(OC)c1 | 7%
O=C(NCCc1ccccc1)C1CCC(CNS(=O)(=O)c2ccccc2)CC1 (configuration not stated) | -17%
CCN(CCCNC(=O)CSc1cc(=O)n(CC)c2ccccc12)c1ccccc1 | -16%
COc1cccc(-c2cc(C3CCN(C(=O)Nc4ccccc4C(F)(F)F)CC3)[nH]n2)c1 | i
COc1cc2c(cc1OC)C(COc1ccccc1OC)N(C(=O)c1ccc(S(=O)(=O)N(C)C)cc1)CC2 (configuration not stated) | -11%
COCCCc1sc(-c2ccccc2)nc1C(=O)Nc1ccccc1-c1nc2cc(CN3CCCC3)cnc2s1 | 35%[10 µM]
O=C(O)CSc1nc2ccccc2nc1N1CCCCC1 | -22%
CCOC(=O)C(CC)N1CCN(Cc2ccc(F)cc2)C(=O)C1=O (configuration not stated) | -6%
CCOC(=O)c1cc2c([nH]1)CCCC2=O | i
Cc1nn2c(c1-c1ccccc1C(C)C)N(Cc1ccc(C(=O)O)s1)CCC2 | -2%[39.2 µM]
O=c1n(Cc2ccc(F)cc2)nc2n1-c1cc(Cl)ccc1OC2 | -17%
CCOc1ccc(CCNC(=O)CCc2c(C)nc3c(c(C)nn3-c3ccc(C)c(C)c3)c2C)cc1 | -18%
CC1CCCCN1Cc1nc2c(c(=O)n(C)c(=O)n2C)n1Cc1ccc(Br)cc1 (configuration not stated) | -21%
Cc1ccc(-c2ccc(=O)n(CC(=O)NCCc3ccccc3)c2)cc1 | -9%
C#CCOc1ccccc1CN1CCN(c2ncc(F)cn2)CC1 | 0%
COc1cc2nc(N3CCN(C)CC3)nc(NCCN(C)C)c2cc1OC | -5%
COC(=O)c1c(NC(=O)/C(C#N)=C/c2ccc(OC)cc2)sc2c1C(C(=O)OC)CC2 (configuration not stated) | -8%
Cc1[nH]c(/C=C2\C(=O)Nc3ccc(S(=O)(=O)N(C)c4cccc(Cl)c4)cc32)c(C)c1C(=O)N1CCN(C)CC1 | 34%[activator]
CC(C)Oc1cccc(-c2csc(N3CCC(C(N)=O)CC3)n2)c1 | i
C=C[C@H]1[C@H](O[C@@H]2O[C@H](CO)[C@@H](O)[C@H](OC(=O)/C=C/c3ccc(O)c(OC)c3)[C@H]2O)OC=C2C(=O)OCC[C@]21O | 35%[10 µM]
CC(C)(C)C(=O)N1CCN(c2cccc(Nc3nn4c(=O)c5ccccc5nc4s3)c2)CC1 | i
CCOc1ccccc1NC(=O)C(=O)NCCc1sc2nc(-c3ccc(OC)cc3)nn2c1C | -10%
SMILES | nsP2pro primary
CC(C)Cn1nc(C(=O)O)c2c1CCN(C(=O)CC(C)c1ccccc1)C2 (configuration not stated) | 5%
Cc1ccc(Cl)cc1N1CCN(S(=O)(=O)c2ccc(-c3cnc(C4CC4)o3)cc2)CC1 | -11%
Cc1ccc(CNC(=O)N2CCCC(CN3CCC(C)CC3)CC2)cc1 (configuration not stated) | -5%
Cc1oc(-c2ccccc2F)nc1CSCC(=O)NCCc1ccccc1 | -16%
COc1ccc(F)cc1S(=O)(=O)NCCc1c(C)[nH]c2c(Cl)cccc12 | -7%
CC(O)C(O)/C=C/C=C/C(=O)O[C@@H]1C=C(C(=O)O)[C@](O)(CO)[C@@]2(C)CCCC(C)(C)[C@H]12 (some centres not stated) | -11%[10 µM]
CC(NC(=O)C1CCN(C(=O)N2CCOc3ccccc32)CC1)c1ccccc1 (configuration not stated) | -1%
CC1CCN(S(=O)(=O)c2nnc(NC(=O)c3cccc(F)c3)s2)CC1 | -18%
CC(C)=CCC[C@](C)(O[C@@H]1O[C@H](CO[C@@H]2OC[C@@H](O)[C@H](O)[C@H]2O)[C@@H](O)[C@H](O)[C@H]1O)[C@H]1CC[C@]2(C)[C@@H]1[C@H](O)C[C@@H]1[C@@]3(C)CC[C@H](O[C@@H]4O[C@H](CO)[C@@H](O)[C@H](O)[C@H]4O)C(C)(C)[C@@H]3CC[C@]12C | 28%[10 µM]
CCCn1c(-c2ccc(F)cc2)nc2c(NCCN3CCCCC3)nc(C)nc21 | i
COc1ccccc1CCNC(=O)C(C)Sc1nc(-c2ccccc2)cc(C(F)(F)F)n1 (configuration not stated) | -17%
COc1ccccc1CNC(=O)C(Cc1ccccc1)NS(=O)(=O)c1ccc2c(c1)CCN2C(C)=O (configuration not stated) | 0%
CCCNC(=O)N[C@@H]1C[C@H](COc2cccc(C)n2)[C@@H](O)[C@H]1O | i
CC(=O)Nc1sc2c(c1-c1ccc3nsnc3c1)CCNC2 | -10%
N#CC1=C2SCN(C3CCCCC3)CN2C(=O)CC1c1ccc(F)cc1 (configuration not stated) | ?
CNC(=O)[C@@H]1CN(C(=O)Cc2c[nH]c3ccccc23)C[C@H]1COC | -4%
CCCSc1ncc(CN2CCCC3(CCNC3)C2)cn1 (configuration not stated) | -5%
COc1ccc(NC(=O)CSc2cn(CC(=O)N3CCOCC3)c3ccccc23)cc1OC | -35%
Cc1nn(C)c(C)c1CCN(C)Cc1ccc(=O)n(C)c1 | -16%
O=c1[nH]c(=O)n([C@H]2C[C@H](O)[C@@H](CO)O2)cc1I | 0%&-8%
COc1cccc(CNC(=O)Cn2cc3c(n2)-c2c(oc(C(=O)N4CCCC4)c2C)CC3)c1 | ?
Cn1nc(C2CCCNC2)n(C2CCCC2)c1=O (configuration not stated) | -3%
Cc1ccc(OCC(=O)OCc2cc(=O)n3nc(C4CC4)sc3n2)cc1 | -20%
CNC(=O)c1cc(C)nc2onc(C3CCN(C(=O)NC4CCCC4)C3)c12 (configuration not stated) | 1%
